Screening results (PubChem BioAssay)
VDR inh: blocks the human vitamin D receptor; P11473; VDR-SRC2-3 peptide fluorescence polarization, 2 h; Potency, µM, without a hit: max response, negative = inhibition, most hits filed as inhibitors; hit rate 0.93% among 400,000; AID 504847; active means well fitted inhibition curve with a large enough effect; inconclusive means small, poorly fitted or top-dose-only effect, or another doubt; inactive means no such curve, though single readings can be large or run the other way; further: series mostly up to about 120 µM
Target sequence (P11473 whole entry, looked up): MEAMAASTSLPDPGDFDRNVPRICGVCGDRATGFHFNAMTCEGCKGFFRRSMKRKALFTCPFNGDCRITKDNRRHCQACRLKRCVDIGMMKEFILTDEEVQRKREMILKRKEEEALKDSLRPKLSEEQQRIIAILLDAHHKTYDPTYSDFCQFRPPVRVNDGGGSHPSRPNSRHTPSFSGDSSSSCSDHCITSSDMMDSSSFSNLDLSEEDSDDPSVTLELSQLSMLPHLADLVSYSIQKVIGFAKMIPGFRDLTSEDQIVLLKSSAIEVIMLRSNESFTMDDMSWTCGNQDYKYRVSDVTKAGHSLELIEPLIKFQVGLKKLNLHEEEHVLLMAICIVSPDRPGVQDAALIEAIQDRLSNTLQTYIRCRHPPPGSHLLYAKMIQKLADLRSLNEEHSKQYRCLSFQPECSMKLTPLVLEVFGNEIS
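Compounds are added to VDR with labelled SRC2-3 coactivator peptide and held 2 h at room temperature. Inhibition of the VDR–peptide interaction is then read as a change in fluorescence polarization.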
* = called active by the depositor; ? = inconclusive; & = joins results of further samples; ! = repeats disagree; [ ] = remark or other dose. On the % scale 0 is the no-effect control and ±100 the full control effect; potency means the concentration at half of the fitted maximal effect. This is a subset; rates above refer to the full screens.

SMILES	VDR inh
c1cn(CCCNc2ncnc3sc4c(c23)CCC4)cn1	-4%
Cc1cccc(C)c1NC(=O)CNC(=O)c1ccc2ccccc2n1	7%
CC(C)N(C(=O)Cn1cc(SCC(=O)N2CCCC2)c2ccccc21)C(C)C	-7%
COc1ccc(CCN=C(N)NS(=O)(=O)c2ccc(OC)c(OC)c2)cc1OC	22%
CCCCN(Cc1cc2cc(C)ccc2[nH]c1=O)C(=O)c1cccc(Cl)c1	4%
CC(=O)Nc1ccc(S(=O)(=O)Oc2cccc(/C=N/N=C3/NC(=O)C(CC(=O)O)S3)c2)cc1 (stereo unspecified)	-16%
O=C(CNC1CCCC1)Nc1cc(Cl)ccc1[N+](=O)[O-]	-2%
COc1ccc(CCNC(=O)c2nnn(CC(=O)Nc3cccc(F)c3)c2N)cc1OC	12%
CCC(C)C1NC(=O)C(Cc2ccc(O)cc2)NC(=O)C(N)CSSCC(C(=O)N2CCCC2C(=O)NC(CC(C)C)C(=O)NCC(N)=O)NC(=O)C(CC(N)=O)NC(=O)C(CCC(N)=O)NC1=O (stereo unspecified)	13µM*!
COC(=O)[C@@]12CCCN1[C@H](c1ccc(-c3ccc(F)cc3)c(OC)c1)[C@H]1C(=O)N(C)C(=O)[C@H]12	3%
Cc1ccc(N(CCC#N)C(=O)CSc2nc3ccccc3c(=O)[nH]2)cc1	-13%
Cc1csc2nc(CNC(=O)c3cccc(C(F)(F)F)c3)cn12	9%
S=c1[nH]nc(COc2ccc(Cl)cc2)n1Cc1ccccc1	-16%
O=C(O)CCN(Cc1ccccc1)S(=O)(=O)c1c(Cl)cccc1Cl	-20%
Cc1ccc(S(=O)(=O)NCCc2nnc3ccc(SCC(=O)Nc4nc(C)cs4)nn23)cc1	-16%
CC(C)(C)NC(=S)N/N=C/c1cccnc1	5%
CC(C)CN1CCC(=O)NC1=S	1%
COc1cccc(NC(=O)Cn2cc(C(=O)c3ccc(F)cc3)c(=O)c3cc(OC)ccc32)c1	-8%
CCOc1cc(/C=N/O)ccc1OCc1ccccc1F	-7%
Cn1c(O)c(N=Nc2ccc(F)cc2)c2ccccc21	-4%
CC(C)(CNC(=O)c1ccc(S(=O)(=O)Nc2ccc(Cl)cc2)cc1)N1CCOCC1	8%
NC(=O)CC(NC(=O)c1ccccc1)c1ccc(N2CCC(Cc3ccccc3)CC2)c([N+](=O)[O-])c1 (stereo unspecified)	-6%
C=CC[C@@H](CC(=O)N[C@H](CO)Cc1ccccc1)C(=O)N[C@@H](COC(=O)[C@@H](CC=C)CC(=O)OC(C)(C)C)Cc1c[nH]c2ccccc12	-7%
CCOC(=O)c1c(NC(=O)c2cc(OCC)c(OCC)c(OCC)c2)sc2c1CCCCC2	4%
COc1ccccc1NS(=O)(=O)c1cc(NC(=O)C(C)C)ccc1N1CCCCC1	79µM*

Later entries
SMILES	VDR inh
CCOC(=O)c1ccc(NC(=O)C2CC2)cc1	13%
O=C(CCl)Nc1cccc2ncccc12	13%
Cc1nnc(NC(=O)COc2ccccc2)s1	4%
CC(C)(C)c1ccc(N2C[C@@H](COc3ccc(C(=O)O)cc3)CC2=O)cc1	1%
O=C(c1ccc2c(c1)N(Cc1ccc(F)cc1)CCS2)N1CCOCC1	-22%
Cc1c(C)n(C)c2ccc(C(=O)NCCN3CCOCC3)cc12	-13%
Cc1ccc(S(=O)(=O)N2CCN(S(=O)(=O)N3CCCCC3)CC2)cc1C	1%
COc1ccc(-c2cc(=O)oc3cc(OCC(=O)N(C)C)ccc23)cc1	-14%
c1ccc(-c2ccccn2)nc1	9%&-16%
CCOc1nc2ccccc2nc1C	18%
COc1cc(/C=N/NC(=O)c2cc(-c3cccc(OC(C)C)c3)nc3ccccc23)ccc1O	-4%
CCOC(=O)C(C(=O)OCC)C(Nc1cccc(Br)c1)c1ccccc1 (stereo unspecified)	?
Cc1ccc(S(=O)(=O)N2CCOCC2)cc1NC(=O)CNC(C)c1ccccc1 (stereo unspecified)	5%
O=C(N/N=C/C(Cl)=C\c1ccccc1)c1ccco1	0%
CCOc1ccc(NC(=O)CN(C)C(=O)c2ccccc2OCc2c(C)noc2C)cc1OCC	-23%
S=c1nccc(-c2cccs2)[nH]1	?
CC(C)(C)c1cc(CCC(=O)NCc2ccncc2)cc(C(C)(C)C)c1O	-3%
Cc1ccc(S(=O)(=O)N2CCC(=O)N(C(COCc3cccc(Cl)c3)C(C)C)CC2)cc1 (stereo unspecified)	-7%
CC1=C(C(=O)Nc2cc(C)ccc2C)C(c2cccs2)NC(=S)N1 (stereo unspecified)	5%
CC1=CC(=O)C=CC1(C)C(Cl)(Cl)Cl (stereo unspecified)	-4%
CC1=C(C(=O)OCc2ccccc2)C(c2cccc([N+](=O)[O-])c2)NC(=O)N1C (stereo unspecified)	13%
Cc1ccc(S(=O)(=O)Nc2ccc3c(c2)ncn3C(C)(C)C)cc1	3%
Cc1ccc(NC(=O)CN(C)S(=O)(=O)c2ccc3c(c2)c(=O)n(C)c(=O)n3C)cc1	47%[activator]
COc1ccccc1N1CCN(C(=O)CCS(=O)(=O)c2cc(Br)cc3c2N(C(=O)C2CC2)CC3)CC1	-9%
Cc1ccc(NC(=O)c2c3c(nc4ccccc24)C(=O)N(C2CCCCC2)C3)cc1F	0%

Quoted from the listing.
`CC1=C(C(=O)Nc2cc(C)ccc2C)C(c2cccs2)NC(=S)N1` (stereo unspecified) in VDR inh is entered as 5%
`COc1ccccc1N1CCN(C(=O)CCS(=O)(=O)c2cc(Br)cc3c2N(C(=O)C2CC2)CC3)CC1` in VDR inh is entered as -9%

Other compounds follow.
SMILES	VDR inh
Cc1nc(-c2ccc(F)cc2)c(CC(=O)Nc2cc(S(=O)(=O)N3CCCCC3)ccc2C)s1	9%
O=C(c1cccnc1)N1N=C(C2CCCCC2)CC1(O)C(F)(F)F (stereo unspecified)	-9%
COC(=O)c1cc(Br)c(=O)n(-c2ccc(F)cc2)c1	-4%
O=C(NC1CCCCC1)C(c1ccc(F)cc1)N(Cc1ccc2c(c1)OCO2)C(=O)c1cnsn1 (stereo unspecified)	0%
O=C(CN1CCN(S(=O)(=O)c2ccccc2)CC1)NC(=O)NCc1ccco1	-24%
Cc1cccc(OCC(=O)N(Cc2ccc(N(C)C)cc2)C2CCS(=O)(=O)C2)c1 (stereo unspecified)	36%[activator]
O=C(CCNC(=O)c1ccccc1Cl)Nc1nnc(C2CC2)s1	-10%
Cc1ccc(OCC(=O)NCCNC(=O)c2cnccn2)cc1	-11%
O=C(NCc1ccc(F)cc1)C1CCCN(S(=O)(=O)c2ccc(Br)s2)C1 (stereo unspecified)	-8%
CC(C)(C)c1nnc2sc(SCC(=O)c3ccccc3)nn2c1=O	2%
COc1ccccc1S(=O)(=O)Cc1ccc(C(=O)NCCCN2CCN(c3ccc(F)cc3)CC2)o1	-12%
CCn1nnc2cc(C(=O)Nc3ccc(C)cc3Br)ccc21	15%
O=C(NCC(=O)N1CC(O)CC1C(=O)N1CCCC1C(=O)OCc1ccccc1)OCc1ccccc1 (stereo unspecified)	-25%
CC(C)NC(=O)C1CCN(C(=O)c2cc3sccc3n2Cc2ccc(F)cc2)CC1	-6%
COc1cccc(CNC(=O)C2CCC(=O)N(C3CC3)C2)c1OC (stereo unspecified)	7%
CCc1ccc(NC(=O)CC2C(=O)N(c3ccc(OC)cc3)C(=O)N2Cc2cccs2)cc1 (stereo unspecified)	-1%
CCn1nnnc1SCC(=O)c1cc(OC)ccc1OC	-4%
C[C@H](NC(=O)c1ccc2ccccc2c1)C(=O)N1CCC2(CC1)NCCc1[nH]cnc12	11%
O=C(NCCc1ccccc1)c1cccc(NC(=O)C2CCCC2)c1	2%
Cc1ccc(C(C)C)cc1OCC(=O)Nc1ccc(-n2cnnn2)cc1	13%
O=C(Nc1ccccc1F)Nc1cc(S(=O)(=O)N2CCOCC2)ccc1N1CCCC1	-12%
CN(C)CCNC(=O)/C(=C/c1ccc(-c2ccc(Cl)cc2Cl)o1)NC(=O)c1ccccc1	-3%
COc1cccc(-c2cc(C(=O)N3CCCc4ccccc43)no2)c1	-3%
Cc1ccc(C)c(N2CCN(C(=O)c3ccc4c(=O)n5c(nc4c3)CCCCC5)CC2)c1	-18%
O=C(CSc1nc2nn(-c3ccccc3)c(=O)c-2c2n1CCCCC2)Nc1cccc(F)c1	5%

In the list so far, 11 contain a Cl atom.
SMILES	VDR inh
CCCCN(Cc1cc2cc(C)ccc2[nH]c1=O)C(=O)c1cccc(Cl)c1	4%
O=C(CNC1CCCC1)Nc1cc(Cl)ccc1[N+](=O)[O-]	-2%
S=c1[nH]nc(COc2ccc(Cl)cc2)n1Cc1ccccc1	-16%
O=C(O)CCN(Cc1ccccc1)S(=O)(=O)c1c(Cl)cccc1Cl	-20%
CC(C)(CNC(=O)c1ccc(S(=O)(=O)Nc2ccc(Cl)cc2)cc1)N1CCOCC1	8%
O=C(CCl)Nc1cccc2ncccc12	13%
O=C(N/N=C/C(Cl)=C\c1ccccc1)c1ccco1	0%
Cc1ccc(S(=O)(=O)N2CCC(=O)N(C(COCc3cccc(Cl)c3)C(C)C)CC2)cc1 (stereo unspecified)	-7%
CC1=CC(=O)C=CC1(C)C(Cl)(Cl)Cl (stereo unspecified)	-4%
O=C(CCNC(=O)c1ccccc1Cl)Nc1nnc(C2CC2)s1	-10%
CN(C)CCNC(=O)/C(=C/c1ccc(-c2ccc(Cl)cc2Cl)o1)NC(=O)c1ccccc1	-3%

Carrying on.
SMILES	VDR inh
COc1cccc(NC(=O)CN(C)C(C)C(=O)N2CCCC2)c1 (stereo unspecified)	-13%
Cc1occc1C(=O)Nc1cccc(C(=O)O)c1	6%
COC(=O)c1sc2cccc(F)c2c1S(=O)(=O)N1CCN(c2ccccc2OC)CC1	6%
COc1ccc(CNC(=O)Cn2ncc3c([nH]c4ccccc43)c2=O)cc1	9%
CC(=O)Nc1ccc(S(=O)(=O)NCC(=O)OCC(=O)NC23CC4CC(CC(C4)C2)C3)cc1	-5%
O=S(=O)(NCc1ccc(F)cc1)c1ccc2[nH]c3c(c2c1)CCCC3	5%
COc1ccc([C@@]2(C(C)C)ON(c3ccccc3C(F)(F)F)C2=O)cc1	2%
COc1ccccc1C(=O)Nc1ccnn1C1CCN(C2CCSCC2)CC1	0%
CN(C(=O)COC(=O)c1ccc(=O)n(Cc2ccccc2)n1)C1CCCCC1	-25%
CN1CCc2cccc3c2[C@H]1Cc1ccc(O)c(O)c1-3	35µM*!
Cc1cc(/C=N/NC(=O)c2cccs2)c(C)n1-c1ccccc1	14%
CC1(C)Oc2ccc3ccc(=O)oc3c2/C(=C/O)C1=O	-4%
O=C(O)c1ccc2c(=O)n(-c3ccc(F)c(Cl)c3)c(=S)[nH]c2c1	28%
OCCC1CN(Cc2cccn2-c2ncccn2)CCN1Cc1ccc(F)cc1 (stereo unspecified)	11%
CCc1nc(SC)ncc1C(=O)NCc1cccc(Br)c1	-8%
COCCNc1nnnc2c1sc1nc(N3CCOCC3)c3c(c12)CC(C)(C)OC3	-13%
COC(=O)NCCOc1nc(N(C)C)nc(N(C)C)n1	6%
O=C(NCCCN1CCOCC1)c1ccc(Sc2cccc(Cl)c2)c([N+](=O)[O-])c1	0%
CCc1cc(C(=O)c2ccc(Br)cc2)c(NC(=O)CN(CC)CC)s1	-12%
Cc1cc(C#N)c(C)n1-c1cc(S(=O)(=O)N2CCOCC2)ccc1N1CCCC1	?
CCCc1ccc(-c2c(C)sc(N)c2C#N)cc1	-2%
CCn1c(COc2ccccc2)nnc1SCC(=O)CC(=O)Nc1ccccc1OC	4%
CCOc1ccc(NC(=O)Cn2c(=O)n(CCc3ccccc3)c(=O)c3c4c(sc32)CN(C(C)=O)CC4)cc1	-4%
O=C(COC(=O)c1cncc(Br)c1)Nc1nnc(-c2ccccc2)o1	7%
CN(c1ncc(C(F)(F)F)cc1Cl)N1C(=O)C2ONC3(C(=O)CC(C)(C)CC3=O)C2C1=O (stereo unspecified)	2%

(listing goes on)
SMILES	VDR inh
CCN1C(C(=O)c2ccccc2)=C(OC(=O)COc2ccc(OC)cc2)c2ccccc2S1(=O)=O	9%
Cc1c(C(=O)N2CCN(C(c3ccccc3)c3ccccc3)CC2)oc2ccccc12	-8%
C=CCNc1oc(-c2ccc(Cl)cc2)nc1C#N	8%
CCn1cc(C(=O)N2CCN(C3CCCCC3)CC2)c2cc(OC)c(OC)cc2c1=O	-14%
CC12c3ccccc3C(c3ccccc31)C1C(=O)N(c3ccncc3)C(=O)C12 (stereo unspecified)	-4%
COC(=O)c1[nH]c2cc(OC)ccc2c1NC(=O)CCN1CCSCC1	-7%
CCOc1ccc2c(c1)c(=O)c(S(=O)(=O)c1ccc(C)cc1)cn2Cc1ccccc1Cl	-18%
CCCN(C(=O)Cn1c(=O)oc2cc(Cl)ccc21)c1ccc(C(C)C)cc1	0%
COc1ccc(NC(=O)c2c(-c3ccccc3)c(-c3ccccc3)nn(C)c2=O)c(OC)c1	7%
Cc1ccc(-c2csc(N3CCC(C(N)=O)(N4CCCCC4)CC3)n2)cc1	-26%
CCOC(=O)c1c(NC(=O)CSc2nnc(CNC(=O)c3ccco3)n2C)sc2c1CCC2	-4%
Cc1ccc(SCC(=O)NC2CCCCCC2)cc1	-14%
Cn1c(SCCCC(=O)c2ccc(F)cc2)nnc1-c1ccncc1	-7%
CCO[C@H]1OC(C(=O)N2CCN(Cc3ccc4c(c3)OCO4)CC2)=C[C@@H](C)[C@@H]1CCCO	-27%
O=C(NCCC1CCCCN1S(=O)(=O)c1ccccc1)C(=O)NCc1ccc(F)cc1 (stereo unspecified)	-14%
COc1ccc2c(c1)sc1nc(=O)ccn12	-14%
Cc1nn(-c2ccccc2)c(Cl)c1/C=N/NC(=O)c1cccc(S(=O)(=O)N2CCCC2)c1	-19%
COc1ccc(Br)cc1CNC(=O)C1CCN(c2nnc(N3CCCC3=O)s2)CC1	0%
O=c1oc2ccccc2cc1-c1nnc(-c2cccc(Br)c2)o1	7%
CCOC(=O)CSc1nc(C)c2ccccc2n1	9%
COC(=O)c1ccc(CS(=O)(=O)c2ccccc2C)o1	5%
CC(C)c1ccc(/C=C/C(=O)CCC(=O)O)cc1	-4%
